HNF4A DNA FP – change in binding of human HNF4 alpha to DNA; P41235; HNF4a-FITC DNA binding, fluorescence polarization, 1 h; activity change, % at 10 µM; 360,000 tested, 0.3% active; in the data active = activity change above about 30%, passing the limit was not always enough;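 note: controls were the assay level and a saturating level of protein; the project sought stronger binding though the title names inhibitors; some compounds called inactive have numbers as strong as hits; positive values seem to mean higher polarization but the record does not say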
Target sequence (P41235 whole entry, looked up): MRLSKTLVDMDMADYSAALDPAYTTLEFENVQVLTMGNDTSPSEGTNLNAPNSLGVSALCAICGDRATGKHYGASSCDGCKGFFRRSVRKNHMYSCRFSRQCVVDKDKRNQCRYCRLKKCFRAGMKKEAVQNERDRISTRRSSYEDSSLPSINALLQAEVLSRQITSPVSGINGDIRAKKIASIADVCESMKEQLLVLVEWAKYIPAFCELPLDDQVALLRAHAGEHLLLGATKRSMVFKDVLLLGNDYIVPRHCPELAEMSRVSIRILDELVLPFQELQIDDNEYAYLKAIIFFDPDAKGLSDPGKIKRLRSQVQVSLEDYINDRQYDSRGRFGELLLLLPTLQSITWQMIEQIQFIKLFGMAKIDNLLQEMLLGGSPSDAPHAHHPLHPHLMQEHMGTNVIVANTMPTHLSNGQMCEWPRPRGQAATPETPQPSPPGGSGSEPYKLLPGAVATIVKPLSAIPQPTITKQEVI
FGF22 binding – binders of recombinant human FGF22 by thermal shift; Q9HCT0; SYPRO orange fluorescence; percent of sucrose octasulfate shift, DMSO zero; calls only at 9.99 µM; 340,000 tested, 1.5% active;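 active = melting point raised past a set limit in the mean and every replicate; inconclusive = no clear call; three in four hits are not shown here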
Target sequence (Q9HCT0 whole entry, looked up): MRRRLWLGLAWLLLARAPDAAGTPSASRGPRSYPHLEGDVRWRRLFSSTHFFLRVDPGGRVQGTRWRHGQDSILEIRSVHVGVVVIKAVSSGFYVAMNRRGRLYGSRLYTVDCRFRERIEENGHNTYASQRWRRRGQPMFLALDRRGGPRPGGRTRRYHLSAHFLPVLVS
B2AR ag – activates human beta-2 adrenergic receptor causing internalization; Am2.2-beta2AR cells, FAP receptor internalization, flow cytometry; reference of the scale not given here; response, % (test concentration not listed); 340,000 tested, 0.43% active; AID 504454;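 active = response above a set limit, near 3 SD of response in nonfluorescent compounds, cut at about 42% in these data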;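 note: stock transfer was 100 nL into about 11 µL; a reference agonist was the positive control; negative values mostly stem from fluorescent compounds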
Target sequence (P07550 whole entry, looked up): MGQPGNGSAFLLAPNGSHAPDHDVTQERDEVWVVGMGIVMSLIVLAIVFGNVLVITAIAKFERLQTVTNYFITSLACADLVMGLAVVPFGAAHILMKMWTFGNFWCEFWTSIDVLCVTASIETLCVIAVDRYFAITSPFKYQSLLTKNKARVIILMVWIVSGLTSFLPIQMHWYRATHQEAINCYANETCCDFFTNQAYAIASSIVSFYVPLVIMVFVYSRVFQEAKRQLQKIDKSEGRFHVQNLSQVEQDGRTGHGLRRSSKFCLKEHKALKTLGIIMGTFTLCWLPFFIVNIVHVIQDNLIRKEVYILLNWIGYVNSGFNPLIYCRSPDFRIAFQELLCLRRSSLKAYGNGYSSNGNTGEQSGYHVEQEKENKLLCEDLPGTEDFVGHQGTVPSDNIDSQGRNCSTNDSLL
UCH37 DUB inh – human UCH37 deubiquitinating enzyme inhibition; Q9Y5K5; purified proteasome/UCH37, Ub-AMC cleavage fluorescence; inhibition, % (concentration not given with the values); 330,000 tested, 0.33% active;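 active = mean of two replicates above 20%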;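 note: 0% = compound-free wells with enzyme and 100% = wells lacking proteasome; stock transfer was 100 nL into about 20 µL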
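Assay system: Proteasome-bound UCH37. Buffer or medium: pH 7.4 Tris-HCl (50 mM) with ovalbumin, ATP-MgCl2, DTT. Incubation: 30 min preincubation with enzyme, 25 min cleavage at room temperature. Measured by: fluorescence, ex 355 nm, em 460 nm. Read-out basis: percent inhibition. Control set: wells without proteasome as full block, compound-free enzyme plus substrate as uninhibited.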
ALR H2O2 inh – inhibitors of human sulfhydryl oxidase ALR | P55789 | purified ALR, DTT oxidation, H2O2 HRP-luminol luminescence | inhibition, % (test concentration not listed) | 290,000 tested, 3.8% active;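 active = mean and each replicate at 75% or more; inconclusive = only one of the two met; inactive = neither met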;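 note: stock transfer was 7.5 nL into about 7.5 µL; 0% = neutral wells and 100% = wells with inactivated enzyme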
Ecoli rRNA inh – inhibits bacterial ribosomal RNA function over humanized ribosomes. AID 720706. GFP signal change (wild-type ribosome), % (no concentration beside the values). 350,000 tested, 1.6% active. E. coli WT GFP vs humanized-ribosome RFP mutants, fluorescence, 24 h; stronger effect = lower value; DMSO median 0, no signal -100;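 active = significant combined selectivity score with lowered wild-type GFP, culture density cut under 30%, mutant RFP and density less affected; inactive = any of these conditions unmet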; note: one replicate is shown; some compounds called inactive have numbers as strong as hits
Ecoli growth – inhibitors of Escherichia coli growth | OD600, 23 h; stronger effect = lower value | OD600 absorbance (test concentration not listed) | 330,000 tested, 0.21% active | AID 1053175;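 active = OD600 absorbance below the run mean of sample wells minus 3.6 SD, in any replicate, cut at about 0.56 in these data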;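 note: stock transfer was 300 nL into about 60 µL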
Ecoli rRNA inh OD600 – recorded beside Ecoli rRNA inh, whose call it bears; OD600 change, %; measured here: OD600 growth;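 optical density of the mix in the first replicate; 0 = DMSO median and -100 = no signal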
Ecoli rRNA inh RFP – recorded beside Ecoli rRNA inh, whose call it bears; RFP signal change, %; measured here: RFP humanized mutant strains;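 first replicate; 0 = DMSO median and -100 = no signal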
* = called active by the depositor; i = inactive; ? = inconclusive; . = no result given.

Start of the listing, in advance:
SMILES	HNF4A DNA FP	FGF22 binding	B2AR ag	UCH37 DUB inh	ALR H2O2 inh	Ecoli rRNA inh	Ecoli rRNA inh OD600	Ecoli rRNA inh RFP	Ecoli growth
Cc1cccn2c(=O)c3c(nc12)N1CCCCC1C1(C3)C(=O)N(C)C(=O)N(C)C1=O (centres undefined)	-0.2	i	0	-2.2	-10	.	.	.	0.64
COC(=O)C1=C(c2ccccc2OCc2ccccc2)C[C@@H]2CC[C@H]1N2C(=O)NC1CCN(Cc2ccccc2)CC1	3.2	i	26	7.4	0	-36	-66	0.1	.
CCOC(=O)C1CCN(/C=C2\C(=O)NC(=S)N(CC)C2=O)CC1	1.9	i	0	-0.7	-8	19	4	0.7	0.68
CN1C(=O)C(=Cc2cn(CC(=O)N3CCCC3)c3ccccc23)C(=O)N(C)C1=O	0.1	i	7	2.3	36	7	1	-1.1	0.69
CC(=O)OCC12CC(OC(=O)CC(C)C)C(C)=CC1OC1C(O)C(OC(C)=O)C2(C)C12CO2 (centres undefined)	-5.5	i	19	.	.	14	13	0.5	.
CC(C)C12CN3CCN(CC(C3)C1O)C2 (centres undefined)	-3.9	.	-8	1.9	-3	.	.	.	0.72
O=C(COC(=O)/C=C/c1ccccc1[N+](=O)[O-])NCC1CCCO1 (centres undefined)	1.6	i	-3	2.6	20	13	3	-1.3	0.67

The list itself, from the first entry:
SMILES	HNF4A DNA FP	FGF22 binding	B2AR ag	UCH37 DUB inh	ALR H2O2 inh	Ecoli rRNA inh	Ecoli rRNA inh OD600	Ecoli rRNA inh RFP	Ecoli growth
Cc1cccn2c(=O)c3c(nc12)N1CCCCC1C1(C3)C(=O)N(C)C(=O)N(C)C1=O (centres undefined)	-0.2	i	0	-2.2	-10	.	.	.	0.64
COC(=O)C1=C(c2ccccc2OCc2ccccc2)C[C@@H]2CC[C@H]1N2C(=O)NC1CCN(Cc2ccccc2)CC1	3.2	i	26	7.4	0	-36	-66	0.1	.
CCOC(=O)C1CCN(/C=C2\C(=O)NC(=S)N(CC)C2=O)CC1	1.9	i	0	-0.7	-8	19	4	0.7	0.68
CN1C(=O)C(=Cc2cn(CC(=O)N3CCCC3)c3ccccc23)C(=O)N(C)C1=O	0.1	i	7	2.3	36	7	1	-1.1	0.69
CC(=O)OCC12CC(OC(=O)CC(C)C)C(C)=CC1OC1C(O)C(OC(C)=O)C2(C)C12CO2 (centres undefined)	-5.5	i	19	.	.	14	13	0.5	.
CC(C)C12CN3CCN(CC(C3)C1O)C2 (centres undefined)	-3.9	.	-8	1.9	-3	.	.	.	0.72
O=C(COC(=O)/C=C/c1ccccc1[N+](=O)[O-])NCC1CCCO1 (centres undefined)	1.6	i	-3	2.6	20	13	3	-1.3	0.67
CCN(CC)c1ccc(/C=C2\C(=O)NC(=O)N(Cc3ccco3)C2=O)cc1	4.8	.	4	4.9	.	.	.	.	0.66
CC12CCC3C(CC=C4CC(O)CCC43C)C1CC(=CN1CCOCC1)C2=O (centres undefined)	1.7	i	9	-1.9	.	-1	-5	11	0.64
COC(=O)C1=C(c2ccc(F)cc2OCc2ccccc2)C[C@@H]2CC[C@H]1N2C(=O)N1CCC(O)CC1	-3.4	.	-2	1.0	6	.	.	.	.
Cn1cc(C(=O)OCC(=O)NC2CCCC2)c2ccccc21	1.2	i	-5	2.2	2	5	15	0.8	0.67
CC(=O)N1N=C2C3CCN(CC3)C2C1c1ccc(C)cc1 (centres undefined)	1.4	i	0	0.2	-9	3	17	-0.2	0.75
Nc1ccc(CC2=NCCN2)cc1	3.4	i	-14	4.3	.	6	22	-3.8	0.72
COc1cc(OC)c(OC)cc1/C=C1/C(=O)NC(=O)N(Cc2ccccc2)C1=O	-1.0	i	-1	1.5	3	6	6	6.2	0.59
CC(C)(C)NC(=O)NC(=O)CN1CC=C(c2ccccc2)CC1	-0.3	i	-2	-1.3	-1	9	11	2.1	0.63
O=C(CCCOc1ccc(Cl)cc1Cl)N1CCC2(CC1)OCCO2	3.3	.	-5	0.1	-4	.	.	.	0.69
COc1cccc(OCc2cc(C(=O)N3C[C@H]4C[C@@H](C3)c3cccc(=O)n3C4)no2)c1	0.1	i	8	-1.0	.	3	1	2.8	0.65
[N-]=[N+]=NCc1cn2cccnc2n1	3.2	i	5	-209	-8	3	2	1.5	0.64
Cc1cc(NC(=O)CCC(=O)N2CCC3(CC2)OCCO3)no1	5.4	.	-8	1.8	-14	.	.	.	0.69
CCC(C)OC(=O)c1c(N)n(Cc2cccs2)c2nc3ccccc3nc12 (centres undefined)	4.4	.	-6	-223	?	.	.	.	0.67
CCOP(=O)(OCC)C(C)(C)NC(=O)C(Cl)(Cl)Cl	-0.6	.	-2	3.7	-4	.	.	.	0.72
CC1([N+](=O)[O-])COP(=O)(Nc2cccc(Cl)c2)OC1 (centres undefined)	-1.6	i	-2	.	.	-8	-13	3.5	.
CCCN1CCCC(C(=O)c2cc(C)c(OC)c(C)c2)C1 (centres undefined)	-3.6	i	9	1.2	-3	5	10	-5.7	0.63
CN(C)c1ccc(/C=C2/C(=N\O)C3CCN2CC3)cc1	2.2	i	4	.	99*	.	.	.	.
COCCN(C(=O)COC(=O)Cc1ccccc1)c1c(N)n(Cc2ccccc2)c(=O)[nH]c1=O	1.1	i	0	0.6	-2	8	6	-1.9	0.68
Carrying on:
SMILES	HNF4A DNA FP	FGF22 binding	B2AR ag	UCH37 DUB inh	ALR H2O2 inh	Ecoli rRNA inh	Ecoli rRNA inh OD600	Ecoli rRNA inh RFP	Ecoli growth
Cc1nn(Cc2ccccc2)c(C)c1C(=O)OCC(=O)Nc1ccccc1SCC#N	13	.	-225	3.0	-15	.	.	.	0.72
CCC(C)n1c(O)c(C=NCc2cccnc2)c(=O)[nH]c1=S (centres undefined)	-1.2	i	-9	8.7	-8	1	-4	6.7	0.68
CCc1c(-c2ccccc2)nc2ccccc2c1C(=O)N1CCC2(CC1)OCCO2	4.7	i	-7	3.7	0	9	8	1.5	0.67
C=CCn1c(O)c(C(C)=NCCN2CCOCC2)c(=O)[nH]c1=O	0.2	.	1	1.8	0	.	.	.	0.7
S=C1NC2(CCCCC2)NC12CCCCC2	-1.1	i	-3	0.8	-9	-21	-37	-8.6	0.63
O=P(O)(Oc1ccccc1)c1ccccc1	0.9	i	6	5.8	.	2	3	-5.8	0.7
CCc1nn2c(=O)c(F)c(N3CCNCC3)nc2s1	-0.1	i	.	.	.	4	8	-1.8	.
Cc1c(C=O)c2ccccc2n1Cc1ccc(F)cc1	5.2	i	11	-0.6	-7	-31	-34	-6.3	0.68
CCCCn1c(=O)c(C(=O)NC(C)c2ccccc2)c(O)c2ccccc21 (centres undefined)	-1.9	i	-2	0.2	1	10	13	3.7	0.69
CC(=O)c1cccc(OCC(O)CN2CC=C(c3ccccc3)CC2)c1 (centres undefined)	2.6	.	-11	2.8	0	.	.	.	0.67
NC(N)=Nc1ccc2[nH]c3c(c2c1)C[C@@]1(O)[C@H]2Cc4ccc(O)c5c4[C@@]1(CCN2CC1CC1)[C@H]3O5	1.1	.	-7	3.8	-3	.	.	.	.
Cc1ccc2c(c1)N(N=O)CCC2	2.0	.	1	-1.0	-16	.	.	.	0.71
Cc1nc2ccccc2c(=O)n1-c1cccnc1	0.6	.	-5	4.8	-19	.	.	.	0.63
COC(=O)C1=C(c2ccc3ccccc3c2)C[C@@H]2CC[C@H]1N2C(=O)N1CCCC1	2.1	.	1	3.0	18	.	.	.	0.7
O=c1[nH]c(=S)n(-c2ccccc2Cl)c(O)c1C=NCCN1CCNCC1	1.9	i	-11	5.0	12	0	-1	-1.6	0.69
Cc1cc(OCC(=O)NCC(O)c2ccccc2)c2c3c(c(=O)oc2c1)CCCC3 (centres undefined)	2.2	i	-8	-23	0	5	6	-0.1	0.73
Cc1c2cnn(CC(=O)N3CCC4(CC3)OCCO4)c(=O)c2c(C)n1Cc1ccc(F)cc1	3.9	.	-1	1.4	2	.	.	.	0.73
O=C(c1cccn2c(=O)c3cc(Br)ccc3nc12)N1CCC2(CC1)OCCO2	-4.2	.	-12	-449	0	.	.	.	0.69
CC(=NCc1cccnc1)c1c(O)n(-c2ccccc2C)c(=O)[nH]c1=O	0.1	i	1	6.8	-6	21	10	-3.5	0.7
Cc1ccc(-n2c(O)c(C=Nc3ccc(S(=O)(=O)N(C)C)cc3)c(=O)[nH]c2=O)cc1	-3.5	.	-3	2.3	.	.	.	.	0.7
Cc1cccc(-n2c(O)c(/C=C/C=Nc3ccccc3)c(=O)[nH]c2=O)c1	163	.	-6	12	-10	.	.	.	0.63
CCc1ccc2c(CN3CC=C(c4ccccc4)CC3)cc(=O)oc2c1	3.7	i	-9	-1.4	-2	-11	1	4.2	0.67
O=c1[nH]c(=O)n(CCC2=CCCCC2)c(O)c1C=NC1CCN(Cc2ccccc2)CC1	3.6	.	-6	5.1	-7	.	.	.	0.77
Cc1ccccc1-n1c(O)c(/C=N/Nc2nc3c(c(=O)n(C)c(=O)n3C)n2C)c(=O)[nH]c1=S	7.3	.	-2	8.3	-59	.	.	.	0.71
COc1ccc2[nH]cc(CCN)c2c1	4.5	i	2	1.4	2	.	.	.	0.66
Other structures:
SMILES	HNF4A DNA FP	FGF22 binding	B2AR ag	UCH37 DUB inh	ALR H2O2 inh	Ecoli rRNA inh	Ecoli rRNA inh OD600	Ecoli rRNA inh RFP	Ecoli growth
O=C1NC(=S)N(c2ccccc2)C(=O)C1C(c1ccncc1)C1C(=O)NC(=S)N(c2ccccc2)C1=O (centres undefined)	-0.2	i	7	4.5	3	11	6	4.7	0.67
CC12CN3CCN(CC(C3)C1O)C2 (centres undefined)	-2.6	.	-1	2.1	.	.	.	.	0.72
CN1/C(=C\C=Nc2ccccc2)C(C)(C)c2ccccc21	11	.	-18	6.4	32	.	.	.	0.68
O=C(/C=C/c1ccc(F)cc1)NC(=S)N1C[C@H]2C[C@H](C1)c1cccc(=O)n1C2	-5.5	i	8	1.6	0	.	.	.	0.7
C=CCOC(=O)c1ccccc1N	-2.2	i	4	-57	-12	-3	1	-2.0	0.66
CN(C)c1nc(OCCNC(=O)COc2ccc(Cl)cc2Cl)nc(N2CCCCC2)n1	4.0	i	-28	2.6	-13	9	4	0.4	0.71
CCOc1ccccc1CN1CCCC(C(=O)c2cc(F)ccc2F)C1 (centres undefined)	0.7	i	15	4.4	.	-8	14	4.7	0.67
CC12CCC3C(CCC4CC(=O)C(C(O)C(F)(F)F)CC43C)C1CCC2O (centres undefined)	0.2	i	-2	-0.1	.	-48	-68	2.6	0.6
CCC(=Nc1ccc2c(c1)CCC2)c1c(O)n(C)c(=O)n(C)c1=O	-1.4	.	-17	1.8	-33	.	.	.	0.72
COC1CCCCC1NCCc1ccccc1 (centres undefined)	5.0	i	2	-2.9	-7	-5	-17	0.7	0.71
Cc1ccc2cc(CNCCc3ccccc3C)c(=O)[nH]c2c1	-2.4	i	1	-1.7	9	9	5	-0.7	0.66
Cc1cc(Br)c(NC(=O)CN2CC=C(c3ccccc3)CC2)c(Br)c1	1.0	i	5	-5.4	-4	-20	-24	-2.4	0.67
CNCC1(c2ccccc2)CCCC1	-0.7	.	5	2.2	-1	.	.	.	0.7
O=C1NC(=O)N(c2ccc(F)cc2)C(=O)/C1=C/c1ccsc1	1.3	i	4	4.2	-13	15	7	1.3	0.67
O=S(=O)(c1cccc2ccccc12)N1Cc2ccccc2-n2nncc2C1	2.6	.	.	.	.	-39	-36	-4.4	.
O=C(C1CC(c2ccc(Cl)c(Cl)c2)=NO1)N1CCC2(CC1)OCCO2 (centres undefined)	-1.5	.	-1	2.1	-1	.	.	.	0.7
CC1C(=O)OC2CCN3CC=C(COC(=O)C(C)(O)C1(C)O)C23 (centres undefined)	-0.1	i	9	.	.	2	-1	1.7	.

Assay outcomes: PubChem BioAssay, several laboratories

The list is partial, so the mix of outcomes need not match the whole.
